HPGD block: HPGD (human) dehydrogenase inhibition; AID 894; P15428; actives 4.3% (n = 150,000); purified HPGD, NADH fluorescence kinetic, PGE2 substrate; Potency, µM, without a hit: top-dose activity change, negative = inhibition, most hits filed as inhibitors; active = well fitted inhibition curve with a large enough effect (not every such curve was filed as active); inconclusive = small, poorly fitted or top-dose-only effect, or another doubt; inactive = no such curve, though single readings can be large or run the other way;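 also: top concentration of the series not given in the record; plate controls included wells without enzyme; inactives centre near -10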
Target sequence (P15428 whole entry, looked up): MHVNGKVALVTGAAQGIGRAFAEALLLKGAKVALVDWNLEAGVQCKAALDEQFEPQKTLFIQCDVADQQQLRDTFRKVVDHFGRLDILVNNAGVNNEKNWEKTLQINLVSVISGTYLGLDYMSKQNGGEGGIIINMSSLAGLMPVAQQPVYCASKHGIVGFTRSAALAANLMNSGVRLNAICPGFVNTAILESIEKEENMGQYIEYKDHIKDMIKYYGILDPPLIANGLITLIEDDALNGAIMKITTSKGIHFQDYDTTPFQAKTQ
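NADH formation kinetics: reaction with 30 uM PGE2 and 1 mM NAD+ (final), 20 nM enzyme, Tris-HCl pH 8 with Tween 20, after 15 min compound preincubation at room temperature. Fluorescence change, last versus first of five reads.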
The depositor's hits bear a star; ? = inconclusive; & = joins results of further samples; ! = a repeat was not active. % is scaled to controls: 0 for no effect and ±100 for the full control effect; potency is read from the fitted curve at half-maximal effect. These rows are one share of the data. The share of hits here may be higher or lower than overall.

SMILES	HPGD block
CCc1nc(SCC(=O)N2CCCc3ccccc32)c2oc3ccccc3c2n1	-3.1%
Cc1cc([N+](=O)[O-])cnc1Sc1nccn1C	-5.7%
O=C(N/N=C/c1ccccc1F)c1ccc(COc2ccccc2Cl)o1	-12.0%
COCCNC(=O)CSc1nc2cc3c(cc2c(=O)n1Cc1ccco1)OCO3	-6.0%
CC1=C(C(=O)OCCOC(C)C)C(c2cccnc2)C2=C(CCCC2=O)N1 (configuration not stated)	?
O=C(Nc1ccc(Cl)cc1)Nc1nc(-c2sccc2Br)cs1	-8.2%
COC(=O)C(NC(C)=O)(Nc1ccccn1)C(F)(F)F (configuration not stated)	-6.6%
CC(/C=C/c1ccc(OCc2ccccc2)cc1)=N\O	-4.3%
CC(C)[C@H](NC(=O)OC(C)(C)C)c1nnc(S(=O)(=O)Cc2c(F)cccc2Cl)o1	5.01µM*
CCOC(=O)Cn1c(=O)c2c(nc3n2CCN3c2ccc(C)cc2)n(C)c1=O	-9.8%
CCCCc1cc(=O)oc2c(CN3CCCC3)c(O)ccc12	?
C=C(C)C(=O)OCCCCCC	0.5%
CCOC(=O)CCc1c(C)c2ccc(O)cc2oc1=O	?
CSc1ccc(/C=C/C(=O)c2ccc(O)cc2)cc1	-27.7%
CCCCCCN(C(=O)CCCCCN1C(=O)NC(c2cccc([N+](=O)[O-])c2)C(C(=O)OCc2ccccc2)=C1C)C(C(=O)NCCCC)c1ccc(OCC(=O)OC)c(C(=O)OC)c1 (configuration not stated)	-13.3%
CC(=O)c1c[nH]c2ccc(C)cc2c1=O	-26.8%
Cc1ccc(-n2c(C(C)n3nc(C)c([N+](=O)[O-])c3C)n[nH]c2=S)cc1 (configuration not stated)	-14.4%
O=C(Cn1ccccc1=O)c1cccs1	-5.9%
O=c1c(Cc2ccccc2)c(O)nc2n1CCS2	-4.3%
CCC(C)(C)n1nnnc1C(C(C)C)N1CCC(C(N)=O)CC1 (configuration not stated)	-8.8%

Continued, starting with the last two of the part before.
SMILES	HPGD block
O=c1c(Cc2ccccc2)c(O)nc2n1CCS2	-4.3%
CCC(C)(C)n1nnnc1C(C(C)C)N1CCC(C(N)=O)CC1 (configuration not stated)	-8.8%
COc1ccc(-c2nc(N)n(C(=O)c3ccccc3Cl)n2)cc1	-13.2%
CCSC(=O)NC12CC3CC(CC(C3)C1)C2	-5.4%
O=C(CCc1nc(-c2ccccc2F)no1)NCCN1CCN(Cc2ccccc2)CC1	0.5%
COCCNC(=S)N1CCN(C(=O)C(=O)Nc2ccc(C(=O)OC)cc2)CC1	-20.6%
CCNC(=O)c1c(N)sc2c1CCCCC2	28.2µM*
COc1ccc(-c2cc(-c3nnc(COC(=O)C4CC4)o3)c3ccccc3n2)cc1OC	?
Cn1ncc(Br)c1C(=O)N1CCc2ccccc21	-5.9%
COc1cc(C(=O)Oc2cccc(Nc3ncnc4ccccc34)c2)cc(OC)c1OC	?
COc1ccc2c(c1)C(=O)[C@H](OC(=O)NCc1ccc3c(c1)OCO3)[C@@H](c1ccc(OC)c(Br)c1)O2	-4.3%
Cc1ccccc1NC1c2ccccc2C(=O)N1Cc1ccco1 (configuration not stated)	-10.7%
C[C@]12CCC3C(CC=C4C[C@@H](O)CC[C@@]43C)C1CCC2[C@]1(C)CCC(=O)O1 (some centres not stated)	-2.5%
CC(=O)Nc1nonc1-c1nc2ccccc2n1CC1CC1	-21.5%
CCCn1c(=O)c2[nH]c(-c3ccc(OCC(=O)Nc4ccc(C(C)=O)cc4)cc3)nc2n(CCC)c1=O	-7.5%
O=C(NCC1(c2ccccc2)CCCC1)c1ccccc1	-0.4%
COc1cc(CNn2cn[nH]c2=S)cc(Cl)c1OCc1ccc(F)cc1	?
COc1ccc(-c2nnc(OCc3ccccc3)c3ccccc23)cc1	-21.4%
Cc1cc(C)n2cc(CSc3ncccc3C(=O)O)nc2n1	?
O=C(O)/C=C/C(=O)N1CCN(C(=O)/C=C/C(=O)O)CC1	-2.6%
CC(=O)N1N=C(c2ccco2)CC1c1ccc(Br)cc1 (configuration not stated)	-21.9%
COc1ccc(OC)c(NC(=O)Cn2c(CCC(=O)O)ccc2-c2cccs2)c1	-9.5%
CCC(Sc1nc(C)cc(=O)[nH]1)C(=O)Nc1nc(-c2ccccc2)cs1 (configuration not stated)	-26.1%
Cc1ccc2c(C)nc(N/C(N)=N/S(=O)(=O)c3ccc([N+](=O)[O-])cc3)nc2c1	-4.3%
CCOc1ccccc1NC1=C(Cl)C(=O)N(Cc2ccccc2)C1=O	-15.2%
CCOC(=O)C1=C(C)Nc2nc(C)nn2C1c1ccc(C)cc1 (configuration not stated)	-20.1%
CCOc1cc(/C=N/NC(=O)c2nn(C)cc2Br)ccc1OCc1ccccc1	-12.5%
CCn1c(SCC(=O)Nc2nc(C)c(C)s2)nc2cccnc21	?
O=S(=O)(Nc1ccccc1N1CCCCC1)c1ccc(Cl)s1	-8.0%
CC(OC(=O)c1cc2sccc2n1C)C(=O)NCc1ccco1 (configuration not stated)	?
OC[C@H]1O[C@@H](n2cnc3c(Nc4ccccc4)ncnc32)[C@H](O)[C@@H]1O	-2.2%
Nc1nc(SCC(=O)NCc2ccccc2Cl)[nH]c(=O)c1NC(=O)c1ccccc1F	-2.3%
O=C(C1CCCCC1)N1CC(=O)N2CCc3ccccc3C2C1 (configuration not stated)	-3.7%&-15.1%&-11.0%
CCc1nc(Nc2ccc3c(c2)OCO3)c2oc3ccccc3c2n1	?
N#Cc1c(N)c(C#N)c(-c2ccc(O)cc2)c2c1CCCC2	?
Cc1ccc(NC(=S)NNC(=O)c2cn(C)nc2C)cc1	-9.7%
O=c1c2c3c(sc2n2cnnc2n1-c1ccccc1)N(Cc1ccccc1)CCC3	?
Cc1noc(C)c1CSc1nnc(-c2c[nH]c3ccccc23)n1-c1ccc(Cl)cc1	-7.7%
COC(=O)c1ccccc1NC(=O)Cn1nc(C(F)(F)F)c2c1CCC2	-14.6%
COCCN(CCOC)S(=O)(=O)c1ccc(OC)cc1	-8.7%
COc1cc(C)c(Cl)c(C)c1S(=O)(=O)NCc1cccnc1	-5.8%
N/C(=N\OC(=O)COc1ccc(Br)cc1Cl)c1ccncc1	?
COc1ccc(-n2c(Cc3cccn3C)nnc2SCC(=O)Nc2ccc3c(c2)OCO3)cc1	-18.4%
NS(=O)(=O)c1ccc(NC(=O)COC(=O)C23CC4CC(CC(C4)C2)C3)cc1	-13.8%
CC(OC(=O)c1ccco1)C(=O)NCc1cccs1 (configuration not stated)	-13.1%
Cc1nn2cc(-c3ccc(Cl)cc3)nc2s1	-13.8%
C=CCn1c(-c2cccs2)nc2nc3ccccc3nc21	?
Cc1ccc(CS(=O)(=O)CCC(=O)NCCN2CCCCC2C)cc1 (configuration not stated)	-4.4%
CC(=O)N(c1ccc(C(C)C)cc1)C1C=CS(=O)(=O)C1 (configuration not stated)	-7.7%
CCOC(=O)c1sc(-c2ccccc2)cc1N	?
COC(=O)c1sccc1NC(=O)Cc1ccc(OC)c(OC)c1	-7.9%
CC(C)=CCC/C(C)=C\COc1c2ccoc2cc2oc(=O)ccc12	?
(further entries)
SMILES	HPGD block
CC(C)Cn1c(N)c(C(=O)CSc2nnnn2C)c(=O)n(C)c1=O	-1.4%
CCOc1ccc(/C(O)=C2/C(=O)C(=O)N(CCOCCO)C2c2cccnc2)cc1 (configuration not stated)	-3.9%
COc1cccc(NC(=O)CNS(=O)(=O)c2ccc(Cl)cc2)c1	-4.0%
CCOC(=O)C1CCN(C(=O)Nc2ccc3nc(C)c(C)nc3c2)CC1	?
O=C(NCCCN1CCOCC1)c1c(O)c2cc(Br)cc(Br)c2[nH]c1=O	-2.7%
CC(=O)Nc1ccc2ccc3cccc4ccc1c2c34	?
COc1ccc2c(c1OC)C(=O)OC2Nn1cncn1 (configuration not stated)	-25.5%
COc1ccccc1-c1noc(-c2ccccc2)n1	-35.2%
CC(=O)NC(Cc1ccccc1)C(=O)NC1CCN(C(=O)c2ccc([N+](=O)[O-])cc2)CC1 (configuration not stated)	2.1%
Cc1ccc(N(C(=O)C(F)(F)F)C(C(=O)NC2CCCCC2)c2ccncc2)cc1C (configuration not stated)	-2.3%
O=C(Cn1nc(-c2ccccc2)ccc1=O)NCCN1CCN(c2cccc(Cl)c2)CC1	0.7%
CCCCCNC(=O)CC1Nc2c3ccccc3nc(=S)n2C1=O (configuration not stated)	-1.1%
NC(=O)C1(N2CCCCC2)CCN(C(=O)CSc2nc3ccccc3s2)CC1	-24.5%
Cc1cc(C(=O)OCC(=O)c2cccc([N+](=O)[O-])c2)c2ccccc2n1	-23.6%
N#Cc1ccc(CN2CCC3(CC2)CCN(C(=O)c2cnccn2)CC3)cc1	0.0%
C=CCSc1nnc2n(CCc3ccccc3)c(=O)c3c4c(sc3n12)COC(C)(C)C4	-3.8%
N#C/C(=C/c1ccc(N2CCOCC2)o1)c1ccc(Br)cc1	?
CN1CC[C@@]2(CCCN(C(=O)c3cccc(F)c3)C2)C1	-0.8%
CCCCCc1nnc(NC(=O)Cc2cccs2)s1	-10.5%
CCc1noc(C)c1C(=O)N1CCCC1	-4.3%
COc1c2occc2c(OC)c2c(=O)cc(C)oc12	28.2µM*!
Cc1csc(Sc2ccc(C(=O)OCC(=O)Nc3ccc(F)cc3[N+](=O)[O-])cc2[N+](=O)[O-])n1	-12.9%
CCO/C=C1/C(=O)N(Cc2ccccc2)C(=O)c2ccccc21	?
CCCN1Cc2cccc(C(=O)NCc3ccccc3)c2C1=O	-0.7%
Cc1cccc(C)c1OCCOCCN1CCN(C)CC1	-13.9%
CCN(CC)S(=O)(=O)c1ccc(/C(O)=C2/C(=O)C(=O)N(CCOC)C2c2ccccc2)cc1 (configuration not stated)	-6.9%
CC1CC(C)CN(CCCSc2ccccc2)C1 (configuration not stated)	-6.4%
CCOC(=O)Cn1cc([N+](=O)[O-])c(OC)n1	-1.4%
CC(=O)Nc1ccc(S(=O)(=O)NC(CC(=O)NCCc2ccccc2)C(C)C)cc1 (configuration not stated)	-10.9%
CCOC(=O)N1CCN(c2c(NCCCN(CC)Cc3ccccc3)c(=O)c2=O)CC1	-14.1%
O=C(Cc1ccccc1)NNC(=O)c1cnccn1	2.2%
CC(=O)Nc1ccc(NC(=O)C2CC(=O)N(c3cccc(C)c3C)C2)cc1 (configuration not stated)	-19.7%
COc1cccc(S(=O)(=O)Nc2ccc(C(=O)NCc3ccco3)cc2)c1	?
CCc1c(C)nc2ncnn2c1NCCc1ccccc1	-6.0%
CCc1cccc(C)c1N(C(=O)Cn1c(COC)nc2ccccc21)C(C)COC (configuration not stated)	-7.1%
Cc1ccc2c(c1)c1nnc(SCC(=O)N3CCN(c4ccc(F)cc4)CC3)nc1n2CC(=O)O	-4.8%
O=C(O)c1ccccc1OP(=O)(O)O	?
O=C(Nc1ccc(N2C(=O)C3C4C=CC(C4)C3C2=O)cc1)Nc1nnc(C(F)(F)F)s1 (configuration not stated)	-2.8%
COc1cccc(C(=O)Cn2c(=N)n(C)c3ccccc32)c1	-8.9%
CC1CCc2nc3ccc(S(=O)(=O)N4CCC(C(=O)N5CCCCC5)CC4)cc3c(C(=O)O)c2C1 (configuration not stated)	-3.6%

Of the compounds above, these contain bromine:
SMILES	HPGD block
O=C(Nc1ccc(Cl)cc1)Nc1nc(-c2sccc2Br)cs1	-8.2%
Cn1ncc(Br)c1C(=O)N1CCc2ccccc21	-5.9%
COc1ccc2c(c1)C(=O)[C@H](OC(=O)NCc1ccc3c(c1)OCO3)[C@@H](c1ccc(OC)c(Br)c1)O2	-4.3%
CC(=O)N1N=C(c2ccco2)CC1c1ccc(Br)cc1 (configuration not stated)	-21.9%
CCOc1cc(/C=N/NC(=O)c2nn(C)cc2Br)ccc1OCc1ccccc1	-12.5%
N/C(=N\OC(=O)COc1ccc(Br)cc1Cl)c1ccncc1	?
O=C(NCCCN1CCOCC1)c1c(O)c2cc(Br)cc(Br)c2[nH]c1=O	-2.7%
N#C/C(=C/c1ccc(N2CCOCC2)o1)c1ccc(Br)cc1	?

Next section.
SMILES	HPGD block
C#CCSc1nncn1C(=O)/C=C/c1ccccc1	?
CCOCCNC(=O)c1ccccc1C(=O)NCCOCC	-10.0%
CCCc1c(C)c2cccc(C)c2[nH]c1=O	-9.7%
Cc1cccc(NC(=O)c2cnc3ccccn3c2=O)c1	?
CNc1nc(CCN2C(=O)c3ccccc3C2=O)cs1	-9.5%
COC(=O)c1ccc(C(NC(=O)OCc2ccccc2)/C(=C/[C@@H](C)C(=O)NCc2ccc(S(C)(=O)=O)cc2)c2cccnc2)cc1 (some centres not stated)	-8.3%
Cc1ccc(C2Nc3ccccc3-c3nc4ccccc4n32)o1 (configuration not stated)	?
Nc1cc2c([N+](=O)[O-])cccc2o1	-10.0%
c1ccc(CCn2c(C3CC3)nc3ccccc32)cc1	-8.7%
Cc1c2ccccc2nc2c(F)c(NCCO)c(F)c(F)c12	-23.9%
Cc1n[nH]c(=O)nc1NC1CCCCC1	-4.4%
CN(C)S(=O)(=O)c1ccc(S(=O)(=O)Nc2ccc3c(c2)oc2ccccc23)cc1	-11.6%
COc1cc2nc(N3CCN(C(=O)[C@@H]4CCCO4)CC3)nc(N)c2cc1OC	?
O=C(c1cc2ccccc2oc1=O)N1CCN(c2ccccn2)CC1	-13.2%
O=c1c(O)c(-c2ccccc2)oc2ccccc12	-28.7%
C=CCn1c(=S)[nH]c2nc3c(cc2c1=O)CCCC3	-15.2%
COc1ccc2c(c1)OC1(O)COc3cc(OC)c(OC)cc3C1=C2 (configuration not stated)	?
O=C(CCc1ccc(S(=O)(=O)NCCc2ccccc2)cc1)N1CCN(Cc2ccc3c(c2)OCO3)CC1	-9.7%
COC(=O)c1sc2ccccc2c1-n1cccc1C(=O)C(=O)Nc1ccccc1	-18.0%
